# High-throughput results from PubChem.
# HCMV NEC inh: inhibitors of HCMV UL50-UL53 interaction, biochemical, HTRF; HCMV UL50-UL53 nuclear egress complex (human cytomegalovirus); normalized percent inhibition; inhibition, % (test concentration not listed); 190,000 tested, 0.15% active; AID 1918969, 2023;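 active = both replicates at 50% or more, plus weaker picks with an unusually low signal ratio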;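 note: stock transfer was 100 nL into about 20 µL; 0% = negative control wells and 100% = wells with untagged competitor protein; inactives centre near -12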
# GIV-Gai inh: inhibitors of GIV peptide binding to Galpha-i3, primary screen, biochemical, fluorescence polarization, FITC-GIV GBA peptide, rat Galphai3 | 90 min; hits give low values; scaled: aluminum fluoride 0%, vehicle 100% | percent of control (FP), % (concentration not given with the values) | 210,000 tested, 0.42% active;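 active = replicate mean at 85% of control or lower, very high polarization wells dropped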;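 note: wells of about 15 µL received 100 nL stock; the first replicate is given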
# Target sequence (P08753 whole entry, looked up): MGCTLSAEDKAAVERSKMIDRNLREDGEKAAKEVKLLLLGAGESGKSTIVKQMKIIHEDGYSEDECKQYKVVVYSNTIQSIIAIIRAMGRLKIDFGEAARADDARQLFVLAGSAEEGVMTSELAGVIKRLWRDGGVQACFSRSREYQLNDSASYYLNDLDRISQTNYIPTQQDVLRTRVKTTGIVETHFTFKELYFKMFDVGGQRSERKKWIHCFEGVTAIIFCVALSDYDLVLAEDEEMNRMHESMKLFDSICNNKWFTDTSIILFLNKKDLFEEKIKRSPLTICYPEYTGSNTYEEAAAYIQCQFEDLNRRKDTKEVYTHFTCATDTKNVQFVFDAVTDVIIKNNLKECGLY
# Sa growth 42C: S. aureus growth inhibition at 42 and 30 °C, primary screen, LtaS inhibitor project, RN4220, two temperatures; OD600, 20 h, 42 °C; hits give low values; relative growth, % (no concentration beside the values); 170,000 tested, 0.53% active; AID 720641, 2013;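 active = growth at 42 °C up to 50% and 20 or more points under that at 30 °C, or under 10% at both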;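 note: 300 nL library stock went into each well; scaled to the means of positive and negative controls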
# Sa growth 42C second temp: recorded beside Sa growth 42C, whose call it bears; relative growth, %; measured here: growth at 30 °C;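 optical density after 20 h as mean of two plates; 100% = untreated growth and lower means inhibition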
# An asterisk follows results filed as active; x = no result given; & = joins results of further samples.
canonical_smiles,HCMV NEC inh,GIV-Gai inh,Sa growth 42C,Sa growth 42C second temp
Cc1nc(N2CCN(c3ccccn3)CC2)c2c(C)c(C(=O)N3CCN(c4ccccc4F)CC3)sc2n1,-21,107,x,x
Cc1ccccc1-c1noc(-c2cn(Cc3ccc(NC(=O)c4ccc5c(c4)OCO5)cc3)cn2)n1,-30,102,x,x
CCN(C(=O)C1CCN(c2nc(-c3ccc(OC)cc3)no2)CC1)c1ccccc1,-28,102,103,81
CCN(Cc1cc2ccccc2[nH]c1=O)C(=O)c1cccnc1,-23,100,85,90
O=c1cc(-c2ccccc2)nc2scc(-c3ccccc3)n12,-33,99,105,88
CCC(C)NC(=O)C(=O)Nc1c2c(nn1-c1ccccc1)CS(=O)(=O)C2 (stereo not given),x,104,117,87
O=C(O)CSc1nncn1-c1ccccc1,-4,101,x,x
Cc1ccc(-c2noc(-c3cn(C)c4cc(N5CCCCC5)c(F)cc4c3=O)n2)cc1,-6,105,x,x
CCOc1ccccc1C1C2=C(CC(C)(C)CC2=O)Nc2n[nH]c(-c3ccc(C)cc3)c21 (stereo not given),-8,102,x,x
Cc1ccc(CCCC(=O)NC2CCS(=O)(=O)C2)cc1 (stereo not given),-32,107,95,82
COc1cccc(N2CCN(C(=O)C(CCSC)NS(=O)(=O)c3ccc4c(c3)oc(=O)n4C)CC2)c1 (stereo not given),x,100,112,99
COc1cccc(C=Nc2ccccc2C(=O)Nc2ccc(F)cc2)c1O,x,99,102,79
Cc1cc(COC(=O)/C(C#N)=C/c2ccc(N(C)C)cc2)no1,2,x,98,94
CC(C)(Cc1ccc(O)cc1)NC(=O)c1ccccc1,-16,103,112,82
CC1=CC2=NS(=O)(=O)CCN2C=C1,-23,x,102,90
CNC(=O)c1nn(-c2ccccc2F)nc1CO,-5,108,x,x
CCn1cc(S(=O)(=O)c2ccc(OC)cc2)c(=O)c2ccccc21,-19,106,70,77
CC(C)NC(=O)C(F)(F)F,-16,99,110,88
c1ccc(Nc2nc3c(s2)Cc2ccccc2-3)cc1,-15,101,50,60
Cc1ccc(-n2ncc3c(=O)n(-c4ccc(C(C)C)cc4)c(-c4ccco4)nc32)cc1,-6,96,87,87
Cc1ccc(C(=O)NCC(=O)OCc2cc(=O)n3nc(C4CC4)sc3n2)cc1,x,108,84,88
COc1ccc(-c2nc3ccccc3n2Cc2ccc(C(C)C)cc2)cc1,-29,108,102,89
CCOC(=O)CC(N)c1ccccc1Cl (stereo not given),-14,x,91,88
O=C(N/N=C/c1ccco1)c1csc2c1CCCC2,-14,105,101,92
Cn1ncc2c(NCc3cccnc3)ncnc21,2,97,95,92
COC(=O)C(C)Nc1cccc(Br)c1 (stereo not given),x,105,99,89
O=C(c1noc2c1COc1ccccc1-2)N(Cc1ccccc1)Cc1cccs1,-14,106,98,83
Cc1c(C(=O)N2CCCc3ccccc32)sc2nc(-c3ccccc3)cn12,x,104,83,76
CS(=O)(=O)N(Cc1ccc(Cl)cc1)c1ccc(C(=O)N2CCCCCC2)cc1,x,103,97,90
O=S(=O)(c1cccc(C(F)(F)F)c1)N1CCC(n2cccc2)CC1,-22,96,76,88
CCc1ccc(NC(=O)Cn2c(=O)n(-c3ccc(Cl)c(Cl)c3)c(=O)c3c(C)c(C)sc32)cc1,-6,100,97,87
Cc1c(CN(C)C(=O)c2cc(-c3ccccc3)nc3ccc(Br)cc23)cnn1C,-37,109,93,85
COc1ccc(-c2c(C#N)c(N)n3c(nc4ccccc43)c2C#N)cc1OC,-8,83*,x,x
O=S(=O)(NCc1ccc(F)cc1)c1ccc2[nH]c3c(c2c1)CCCCC3,x,103,107,79
O=C1Oc2ccccc2C(=O)/C1=C/N1CCc2ccccc21,-14,x,105,89
Cc1ccc(-c2nc3cccnc3n2CCN)cc1,-35,117,x,x
COC(=O)c1sccc1S(=O)(=O)Nc1ccc(-c2cn3c(n2)SCC3)cc1,9,109,93,86
COc1ccc(Nc2c3c(nc4nc(C)nn24)CCCC3)cc1Cl,-1,105,x,x
O=C(CC(C(=O)Nc1ccc2c(c1)OCO2)C(=O)c1ccccc1)NC1CCS(=O)(=O)C1 (stereo not given),-31,x,96,88
CC(=O)N1CCCc2cc(S(=O)(=O)N3CCN(c4ccccc4)CC3)ccc21,2,97,x,x
CC1CN(C(=S)NC(=O)C2CC2)CCN1C(=S)NC(=O)C1CC1 (stereo not given),-29,x,94,89
CN(C)C(=O)Nc1ccc2c(c1)nnn2C,-1,99,94,99
Cn1c(=O)c2c(-c3ccccc3)n3c(c2n(C)c1=O)C(c1ccco1)Nc1ccccc1-3 (stereo not given),-6,96,111,93
NCCN1C(=O)C2C3c4ccccc4C(c4ccccc43)C2C1=O (stereo not given),-6,105,95,99
CCC(C(=O)N1CCN(c2ccccc2)CC1)n1nc(C)c2sc3ccccc3c2c1=O (stereo not given),-10,104,94,91
CC(=O)NC(Cc1ccc2ccccc2c1)C(=O)O (stereo not given),-4,104,107,73
CCCCn1cc2c(c1-c1ccccc1Br)c(=O)n(C)c(=O)n2C,-18,104,98,85
O=C(NCCn1c(C(F)(F)F)nc2cccnc21)Nc1ccc(F)cc1,-14,107,x,x
CC(C)C(=O)n1nc(-c2ccccc2)nc1N,-27,103,x,x
CNCc1ccc(N2CCCC2)cc1,-37,x,76,88
COCCCn1c(SCc2cc(=O)oc3cc(O)c(O)cc23)nnc1-c1ccc(Cl)cc1,-69,x,43,52
Cc1ccc(C)n1-c1ccc(SCC(=O)O)cc1,56*,6.4*,89,90
Cn1cc(CCCC(=O)NCc2cccc(Br)c2)c2ccccc21,-19,98,129,97
Cc1cccc(NC(=O)CSc2nc3ccccc3c3nc(CCc4c(C)n[nH]c4C)nn23)c1,x,97,130,73
O=C(c1cc(S(=O)(=O)N2CCCCC2)ccc1N1CCCC1)N1CC=C(c2ccccc2)CC1,-8,x,91,95
CCCc1c(C(=O)Nc2ccc(N3CCOCC3)cc2)cnn1-c1ccccc1,-25,104,102,86
COc1ccc(C2C3=C(CC(C)(C)CC3=O)OC3=C2C(=O)CC(C)(C)C3)cc1CSc1nc2ccccc2o1,-6,105,x,x
O=C(CCCCCn1c(=O)[nH]c2ccccc2c1=O)NCc1ccc(Cl)cc1,x,99,132,89
COc1ccc2cc3cc(C(=O)Nc4ccc(Oc5ccccc5)cc4)oc3nc2c1,x,104,99,85
NC(=O)C1CCN(C(=O)CN2C(=O)COc3ccc(C(=O)N4CCCCC4)cc32)CC1,-22,99,x,x

# Just HCMV NEC inh, Sa growth 42C and Sa growth 42C second temp, for some of the entries so far:
SMILES,HCMV NEC inh,Sa growth 42C,Sa growth 42C second temp
Cc1ccc(C)n1-c1ccc(SCC(=O)O)cc1,56*,89,90
COc1ccc2cc3cc(C(=O)Nc4ccc(Oc5ccccc5)cc4)oc3nc2c1,x,99,85
O=S(=O)(NCc1ccc(F)cc1)c1ccc2[nH]c3c(c2c1)CCCCC3,x,107,79
COC(=O)c1sccc1S(=O)(=O)Nc1ccc(-c2cn3c(n2)SCC3)cc1,9,93,86
CN(C)C(=O)Nc1ccc2c(c1)nnn2C,-1,94,99
Cn1cc(CCCC(=O)NCc2cccc(Br)c2)c2ccccc21,-19,129,97

# The listing continues.
# Value order – HCMV NEC inh, GIV-Gai inh, Sa growth 42C, Sa growth 42C second temp
Cc1ccc(Nc2c(-c3ccc(C)o3)nc3nc(C)cc(C)n23)cc1
    x, 103, 66, 39
CN(Cc1ccc(Br)cc1)S(=O)(=O)c1cccc(C#N)c1
    -22, x, 110, 100
COc1ccc(NC(=O)c2cc3c(s2)-c2c(C)cccc2OC3)cc1Cl
    -25, 96, 107, 87
CCOc1cc(/C=C(\C#N)C(=O)OC(C)C)ccc1OCC(=O)N(C)C
    -66, x, 106, 92
CCOc1cc2c(cc1OCC)C1c3ccccc3OCC(=O)N1CC2 (stereo not given)
    -11, x, 93, 92
CSc1ccc(S(=O)(=O)NCCc2ccccc2)cc1
    -8, 98, 96, 101
CS(=O)(=O)C1=C(N)C(=O)N(c2ccccc2)C1c1ccccc1 (stereo not given)
    -3, x, 107, 95
CCNC(=O)c1cnc2sc(C)c(C)n2c1=O
    -28, 104, x, x
N#CC1(C#N)[C@@H]2c3ccccc3C=CN2[C@@H](C(N)=O)[C@@H]1c1ccc(F)cc1
    -6, x, 91, 89
CN(C)c1ccc([C@H]2N(c3ccc(Cl)c(Cl)c3)C(=O)[C@@H]3CCCN32)cc1
    -21, 100, x, x
Cc1ccc(CC(=O)NCc2nc(-c3ccccc3)no2)cc1
    -18, 105, 101, 102
CC(=O)Nc1cccc(SSc2cccc(NC(C)=O)c2)c1
    2, 99, 88, 65
CN(C(=O)Cn1nc(Cc2cccnc2)c2ccccc2c1=O)c1ccccc1
    -5, 104, 109, 87
COc1ccccc1OCCNC(=O)C1CCCCC1
    -4, 108, 124, 98
NC(=O)CSc1nnc(NC(=O)Cc2cccs2)s1
    -20, 110, 95, 84
Cc1ccc(NC(=O)CSc2c(C)cc(=O)n(N)c2C)cc1C
    -37, x, 105, 96
O=C(Nc1ccc(O)cc1)c1ccc2ccccc2c1
    -20, 98, 109, 97
Cc1oc(C23CC4CC(CC(C4)C2)C3)cc1C(=O)N1CCOCC1
    -23, 103, 95, 78
CC1CCN(S(=O)(=O)c2cn(CC(=O)N3CC(C)CC(C)C3)c(=O)c3ccccc23)CC1 (stereo not given)
    -10, 105, 97, 90
CC(C)c1nnc(-c2cc3ccccc3n2CC(=O)N(C(C)C)C(C)C)o1
    8, 107, x, x
COC(=O)c1cc(S(=O)(=O)NCc2ccc(S(N)(=O)=O)cc2)oc1C
    -2, 107, 100, 97
COc1ccccc1NC(=O)c1sc2nc(C)c(C(=O)Nc3ccc(C)cc3C)c(-c3cccs3)c2c1N
    -1, 109, 104, 90
O=C1c2ccccc2C(=O)N1CN1c2cccc3cccc(c23)S1(=O)=O
    -36, x, 78, 95
CC1=C(c2ccc(C)cc2)S(=O)(=O)N=C1N1CCCC1
    -14, 100&97, 99, 88
O=C1CC2CC3CC(C2)CC1C3
    -12, x, 97, 89
O=S(=O)(c1ccc2nc(Nc3cccc(F)c3)ccc2c1)N1CCOCC1
    -11, 103, x, x
Cc1ccc(CN2CCN(C/C=C/c3ccccc3)CC2)cc1
    -8, 105, 113, 79
Cc1ccccc1OC(=O)CSc1nnc(-c2ccc3c(c2)OCO3)o1
    5, 106, 98, 89
COc1cccc(C(=O)N(Cc2cccc(Cl)c2)Cc2ccco2)c1
    -6, 100, 94, 70
O=C(O)C1CCN(S(=O)(=O)c2ccc(-c3nn[nH]n3)cc2)CC1
    9, 108, 109, 95
O=S(=O)(c1ccc(C2CCCCC2)cc1)N1CC(OCc2ccc(Cl)cc2)C1
    -22, 93, x, x
Cc1c(C)n(C)c2ccc(C(=O)NCCCN3CCCCC3C)cc12 (stereo not given)
    x, 112, 100, 102
COc1ccc(C2(CNC(=O)c3ccccc3)CCOCC2)cc1
    -18, 105, 88, 76
COc1ccc(OC)c(-c2csc(=Nc3ccccc3)n2CCCn2ccnc2)c1
    -13, x, 57, 29
COc1ccc(CNc2oc(/C=C/c3cc(OC)c(OC)c(OC)c3)nc2C#N)cc1
    -37, 98, 101, 80
O=C(O)c1cccc(CSc2ncccn2)c1
    -22, 100, 116, 87
Cc1cc(C(=O)Nc2ccccc2F)n[nH]1
    -4, 96, x, x
Cc1c(S(=O)(=O)NCc2cccnc2)cc(C(=O)N2CCCC2)n1C
    5, 109, x, x
CC(=O)Nc1ccc(S(=O)(=O)NCc2ccc(C(=O)NCc3ccccc3)cc2)cc1
    x, 105, 115, 84
Cc1cc(OCC(=O)N(Cc2ccc(N(C)C)cc2)Cc2ccco2)cc(C)c1Cl
    2, 104, 104, 98
COc1ccc(N2CC(NC(=O)Cc3cccs3)CC2=O)cc1 (stereo not given)
    x, 101, 109, 90
COc1ccc(N(C(=O)c2ccco2)c2ccccc2)cc1
    -1, x, 113, 89
COc1ccc(NC(=O)C2CCCN(S(=O)(=O)c3cc4c(cc3C)NC(=O)CO4)C2)c(OC)c1 (stereo not given)
    -33, 100, x, x
Cc1ccc2c(c1)C=C(C(=O)Nc1ccc(Cl)cc1)C=CO2
    -25, 101, x, x
O=C(Nc1cccnc1)c1cc(C2CC2)on1
    -17, 100, 90, 74
COc1ccc(NC(=O)Cc2coc3cc(C)cc(C)c23)c(OC)c1
    -3, 107, 117, 101
CCC(=O)N(CC)Cc1cc2ccccc2[nH]c1=O
    -25, 98, 82, 87
COc1ccc2c(Nc3cc(OC)c(OC)c(OC)c3)c(C#N)cnc2c1
    -31, 102, x, x
O=C(NCCc1c[nH]c2ccccc12)C1CCN(c2nc3ccccc3[nH]2)CC1
    -20, 101, x, x

# Random draw from the library; about 0.79% have a hit in one of these screens.
